Bioassay records (PubChem BioAssay)
NPYLR7 agonist: agonists of mosquito NPYLR7 receptor, primary screen, cell-based, Aedes aegypti, calcium fluorescence, mosquito biting behavior. 270,000 compounds, 0.15% hits. activation, % at 10 µM. AID 1259423, 2018. HEK293T NPYLR7/Galpha15, GCaMP6s calcium fluorescence. Aedes aegypti neuropeptide Y-like receptor 7 (NPYLR7); in the data active means activation above about 40%;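 further: 0% = vehicle and 100% = reference agonist at the receptor; some compounds past the cut are filed as inactive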
NPYLR7 agonist max-min: further read-out of NPYLR7 agonist, marked with its call; activation, %; measured here: Max-Min RFU normalised activation; some inactives read as strong as hits;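 span of the calcium signal over five minutes; 0% = vehicle and 100% = native peptide agonist; compound fluorescence can raise it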
An asterisk follows results filed as active; & = joins results of further samples.

canonical_smiles | NPYLR7 agonist | NPYLR7 agonist max-min
COc1ccc2[nH]c3c(c2c1)CCN(C(=O)c1cc(F)cc(F)c1)C3c1ccc(OCc2ccccc2)cc1 (centres undefined) | -1 | -9
COc1cccc(Cc2nsc(N3CCC(CNC(=O)c4cc(OC)cc(OC)c4)CC3)n2)c1 | 7 | 4
CCN(CCS(=O)(=O)c1ccccc1)CC(=O)N(C)C | 5 | 7
Nc1nnnn1/N=C\c1c[nH]c2ccccc12 | -4 | -6
COC(=O)c1sccc1NC(=O)c1cc(OC)cc(OC)c1 | 11 | 6
Cc1cc(C)cc(-n2ccnc(SCC(=O)NCCc3ccccc3)c2=O)c1 | -2 | -5
COCC1(C(=O)N2CCN(CCn3cncn3)CC2)CCC1 | 5 | 2
CCNC(=O)CNc1cccc(Cl)c1C | 1 | 1
O=c1c2cnc3nc(-c4ccncc4)nn3c2ccn1C1CCCC1 | 5 | 11
CC(C)(Oc1ccccc1OC(=O)c1ccccc1)C(=O)CBr | -4 | -11
O=C(Nc1ccc(Nc2cc(-n3cccn3)ncn2)cc1)C1CCCO1 (centres undefined) | -8 | -14
CCOC(=O)C1CCN(c2nc(C(C)C)nc3sc(C)c(C)c23)CC1 | -1 | 6
COc1cc(C)ccc1S(=O)(=O)N1CCC(c2c[nH]c3ccc(C)cc23)CC1 | 31 | 17
O=C([C@@H]1C[C@H]1c1ccccc1)N1CCC(c2ccncc2)CC1 | 1 | 1
CC(C(=O)O)(c1ccccc1)c1ccccc1 | -4 | -6
COc1cccc(CSc2nnc(C(C)NC(=O)COCc3ccccc3)n2-c2cc(Cl)ccc2C)c1 (centres undefined) | -3 | -2
CCN(CC)CCn1cc(NC(=O)Cc2ccccc2Cl)cn1 | 3 | 2
CCOC(=O)c1ccc(NC(=O)NCc2nnc(SCc3ccc(F)cc3)n2-c2ccc(C)cc2)cc1 | 16 | 17
O=C1C(=O)N(Cc2ccccc2)C23C1=C(c1ccc(F)cc1)OC2(O)c1ccccc1C3(O)O (centres undefined) | 0 | -1
CN(C)C(CNc1cccc(Cl)c1C#N)c1ccccc1 (centres undefined) | -2&7 | -7&6
CCC(CC)C1C2=C(CCCC2=O)OC(=N)C1C#N (centres undefined) | 9 | 8
Cc1nc(C)n(C(Oc2ccc(Cl)cc2Cl)C(=O)C(C)(C)C)n1 (centres undefined) | -7 | -9
COc1ccc2nc(-c3ccc(C)c(NC(=O)C(C)Oc4ccccc4F)c3)cn2n1 (centres undefined) | -1 | -2
O=C(NCC1CN(c2cccc(Cl)c2)C(=O)O1)c1ccccc1S(=O)(=O)C(F)F (centres undefined) | 3 | 4

3 of the compounds above, field by field.
> O=C1C(=O)N(Cc2ccccc2)C23C1=C(c1ccc(F)cc1)OC2(O)c1ccccc1C3(O)O (centres undefined)
  NPYLR7 agonist: 0; NPYLR7 agonist max-min: -1
> CCC(CC)C1C2=C(CCCC2=O)OC(=N)C1C#N (centres undefined)
  NPYLR7 agonist: 9; NPYLR7 agonist max-min: 8
> CN(C)C(CNc1cccc(Cl)c1C#N)c1ccccc1 (centres undefined)
  NPYLR7 agonist: -2&7; NPYLR7 agonist max-min: -7&6

(further entries)
canonical_smiles | NPYLR7 agonist | NPYLR7 agonist max-min
CCC1c2cccn2CCN1C(=O)c1cccc(NCc2cccnc2)c1C (centres undefined) | 20 | 8
Cc1c(C(=O)NCCOc2ccccc2)cnc2c(-c3cccc(Cl)c3)cnn12 | 24 | 29
Cc1c(C(=O)NCc2ccc(Cl)c(Cl)c2)sc(=O)n1CCOc1ccc(F)cc1 | 13 | 9
CCCCN1CCN(C(=O)CCNC(=O)c2ccc(F)cc2)CC1=O | 8 | 6
Cc1ccc(CC(=O)N2CCCC(O)(C(F)(F)F)C2)cc1 (centres undefined) | 5 | 4
O=C1NN(c2ccc(F)cc2)C(=O)/C1=C\c1cnn(-c2ccccc2)c1 | 0 | -3
O=C(CCc1cccnc1)N1CCCC(N2CCN(Cc3ccc4c(c3)OCO4)CC2)C1 (centres undefined) | 0 | -5
COCCN1CCCN(C(=O)c2cnc3c(cnn3C(C)C)c2)CC1 | -1 | 2

Looked up by compound from above, 2 records:
canonical_smiles | NPYLR7 agonist | NPYLR7 agonist max-min
CCC1c2cccn2CCN1C(=O)c1cccc(NCc2cccnc2)c1C (centres undefined) | 20 | 8
Cc1ccc(CC(=O)N2CCCC(O)(C(F)(F)F)C2)cc1 (centres undefined) | 5 | 4

(cont.)
canonical_smiles | NPYLR7 agonist | NPYLR7 agonist max-min
COc1ccc(/C=C2\C=C(c3ccccc3)N(c3ccc4ccccc4c3)C2=O)cc1 | 11 | 14
O=C(O)c1cccc(CC2CCN(C(=O)CCn3cncn3)C2)c1 (centres undefined) | 6 | 4
CN(CCO)C(=O)c1cccc(O)c1 | 22 | 12
Cc1ccc(Cc2nc(N3CCN(C(=O)c4cccc(Cl)c4)CC3)c3c(C)nn(-c4ccc(F)cc4)c3n2)cc1 | 2 | 2
CSC1CCCC1N(C)C(=O)CNC(=O)c1cc(C)oc1C (centres undefined) | 2 | 2
Cc1ccc(C)c(CN(Cc2nc(C(=O)N3CCN(C)CC3)co2)C(C)C(C)C)c1 (centres undefined) | -3 | -15
COC(=O)CN1C(=O)CNC12CCN(C(=O)/C=C/c1ccc(C)cc1)CC2 | 0 | 27
Cc1nc2cc(NC(=O)C(C)c3cccc(C(=O)c4ccccc4)c3)ccc2s1 (centres undefined) | -7 | -14
CC(C)c1cc(NCc2cccnc2N2CCN(c3ccccn3)CC2)ncn1 | 12 | 9
O=C(Cn1ccnc1)N1CCCCCCC1 | 13 | 11
O=C(c1ccco1)N1CCCC(OCc2cccc([N+](=O)[O-])c2)C1 (centres undefined) | -1 | 0
Clc1ccc(N2CCN(N=Cc3ccccc3Br)CC2)cc1 | 6 | 5
CN1CCC2(CC1)CN(C(=O)c1cccc3cccnc13)CCN2C | 4 | 1
CCCCCCC1C2=C(CC(C)(C)CC2=O)OC(=N)C1C#N (centres undefined) | -1 | -5
O=C(NC1CCN(C2CC2)CC1)c1ccccc1-c1ccc(C(F)(F)F)cc1 | 7 | 2
Cc1ccc(C)c(C2=NN(C(=O)CN3CCCCC3C)C(c3ccc(Cl)cc3)C2)c1 (centres undefined) | -9 | -4
COC(=O)C1CCN(C(c2ccc([N+](=O)[O-])cc2)C2Sc3nc(C)nn3C2=O)CC1 (centres undefined) | 4 | 2
Cc1ccc(N2CCCn3c2nc2c3c(=O)n(CCN3CCCCC3)c(=O)n2C)c(C)c1 | 0 | -4
CC1CCCN(S(=O)(=O)c2ccc(NC(=O)/C=C/c3ccc4c(c3)OCO4)cc2)C1 (centres undefined) | 0 | -1
Fc1cccc(C2c3cccn3CCCN2Cc2cccc(Oc3ccccc3)c2)c1 (centres undefined) | 14 | 11
CC1(C)Nc2ccccc2-c2c1sn(C1CCCCC1)c2=S | 2 | 53
O=c1[nH]c(-c2ccc(Cl)s2)nc2c1CCC2 | -7 | -5
CC(C)CC(=O)NNC(=O)CC12CC3CC(CC(C3)C1)C2 | -2 | -2
O=C1c2ccc([N+](=O)[O-])cc2C(=O)N1Cc1ccccc1 | 1 | 0
Cc1cc(C(=O)N=Nc2c(O)[nH]c3ccccc23)c(C)o1 | -3 | -4
CN1C(=CC(=O)c2cc3ccccc3oc2=O)C(C)(C)c2ccccc21 | 13 | 12
CN(C)[C@@H]1C[C@@H](C(=O)O)N(C2CCN(C(=O)c3ccccc3)CC2)C1 | 8 | -11
Cc1cc(C)c2oc(-c3cccc(NC(=O)c4cc([N+](=O)[O-])ccc4Cl)c3)nc2c1 | 6 | 12
O=C(c1cc([N+](=O)[O-])cc([N+](=O)[O-])c1)N1CCc2nc(-c3ccccc3)nc(N3CCCCC3)c2C1 | -10 | -16
N#CCSc1ccc2nnc(CCNC(=O)c3ccccc3)n2n1 | 3 | 4
O=C(c1cn(CC2CCCO2)nn1)N1CCN(Cc2cccc(Cl)c2)CC1 (centres undefined) | 4 | 3
CCCNC(=O)Nc1ccc(-c2c(-c3ccc4c(c3)OCO4)nn(-c3cccc(C)c3)c2OC(C)=O)cc1 | -10 | 2
Cc1ccc(-n2ncc3c2CCCC3NC(=O)c2cc(C3CC3)on2)cc1C (centres undefined) | 15 | 4
COc1ccc(OC)c(C2C(C(=O)c3cccs3)=C(O)C(=O)N2CCCN(C)C)c1 (centres undefined) | 8 | 12
COc1ccc(-c2n[nH]c(=S)n2-c2ccc(OC)cc2)cc1 | 5 | 0
CC(C)Cc1nc(N2CCCN(C(=O)CSc3ccccc3)CC2)c2c(-c3cccc(C(F)(F)F)c3)noc2n1 | -5 | -6
COc1ccc(N2CCN(C(=O)c3csc(CSc4nnc(-c5ccco5)n4-c4ccc(F)cc4)n3)CC2)cc1 | 18 | 15
Fc1ccc(Br)cc1C1CC(c2cccc(Br)c2)=Nc2nnnn21 (centres undefined) | 5 | 4
O=C(CCCC(=O)N1CCCC2(CCNCC2)CC1)c1ccccc1 | 2 | 1
CC1CCCN(C(C)CNC(=O)c2ccc(F)cc2Cl)C1 (centres undefined) | 1 | 0
COCCN=c1scc(-c2ccc(OC(F)F)cc2)n1N=CC1CC2C=CC1C2 (centres undefined) | 1 | 0
CNC(=O)c1nnc2n1CCN(C(=O)COc1ccccc1)C2 | 7 | 3
COc1cc(-c2onc(C)c2C(=O)NCCC2(C)OCCO2)cc(OC)c1OC | 4 | -1
CC(C)NC(=O)CSc1cn(CC(=O)N2CCOCC2)c2ccccc12 | -7 | -9
CC(C)CCc1noc(C2(c3ccc(F)cc3)CCOCC2)n1 | 2 | 0
COCCN1C(=O)CC(CC(=O)N2CCN(C3CCCCC3)C(=O)C2)(c2cccc(OC)c2)C1=O (centres undefined) | 15 | 0
O=C(Cn1cnc([N+](=O)[O-])n1)N/N=C\c1cc([N+](=O)[O-])ccc1O | -7 | -13
Cc1ccccc1-c1ccc(N2CCC(C(=O)NC3CCCCCC3)CC2)nn1 | -5 | -10
Cc1ccccc1C(CNC(=O)c1cn2cccnc2n1)N(C)C (centres undefined) | 5 | 3
CC(C1CC1)N(C(=O)CN1CCCN(C(N)=O)CC1)C1CC1 (centres undefined) | 0 | 1
NC(=O)c1cccc(C(=O)N2CCCC2c2noc(C3CC3)n2)c1 (centres undefined) | 5 | 0
COc1ccccc1C(=O)NCCc1ccccc1F | -2 | -3
O=C(NC(c1ccccc1)c1ccsc1)C1CCN(Cc2ccc3ccccc3n2)CC1 (centres undefined) | 3 | 1
Cc1cc2c(cc1C)NC(c1ccc(Cl)c([N+](=O)[O-])c1)C1C(=O)CC(C)(C)CC1=N2 (centres undefined) | -4 | -9
COc1ccc(NC(=O)CNC(=O)CN(Cc2ccco2)C(=O)c2ccc(Cl)cc2)cc1 | 20 | 18
Cc1ccccc1-n1nc(C(C)(C)C)cc1NC(=O)CN(CCc1ccccc1)C(=O)C(C)(C)CCl | -3 | 4

Later entries
canonical_smiles | NPYLR7 agonist | NPYLR7 agonist max-min
O=C(NCc1ccccc1Cl)C1CCCCN1Cc1ccccn1 (centres undefined) | 1 | -1
O=C(Cc1ccc(F)c(F)c1)N1CCC(n2c(C(F)(F)F)nc3ccccc32)CC1 | 14 | 8
O=C(NN=Cc1sc(N2CCCCC2)nc1-c1cccs1)C1CC1 | -5 | -9
Cc1csc(CNC(=O)N2CCC(Oc3c(C)cccc3C)CC2)n1 | 4 | -1
O=C(NN(c1ccccc1)C1CCS(=O)(=O)C1)C12CC3CC(CC(C3)C1)C2 (centres undefined) | 0 | -1
CCc1ccc(-c2cn3cc(C)ccc3n2)cc1 | 6 | 5
CN(CCn1cccn1)c1nc(-c2cccnc2)nc2c1cnn2C | 18 | 12
COc1ccc(CN(Cc2ccccc2F)CC(O)COCc2ccco2)cc1 (centres undefined) | 20 | 23
CC(Nc1ccccc1)(C(=O)N1CCn2cncc2C1)c1ccccc1 (centres undefined) | -2 | -4
O=c1[nH]nc(Cc2cccnc2)n1Cc1ccc(Cl)cc1Cl | 16 | 3
O=C(c1csc(-c2cc3ccccc3[nH]2)n1)N1CCN(C(=O)c2ccco2)CC1 | 10 | 10
NC(=O)c1cccc(Oc2ccccc2S(=O)(=O)C(F)(F)F)c1 | 2 | 2
CC(c1ccon1)N(C)C(=O)CCc1nnc(CCC2CCCCC2)o1 (centres undefined) | 1 | 0
CN(C)S(=O)(=O)c1cccc(NC(=O)Cc2cc(Cl)c3c(c2)OCCCO3)c1 | 2 | -1
CCC(C)Cn1c(-c2ccc(OC)cc2)csc1=Nc1cccc(OC)c1 (centres undefined) | -8 | -14
CS(=O)(=O)c1ccc(NC(=O)Cn2c(-c3cccs3)noc2=O)cc1 | -8 | -9
CCCc1nc(NCc2cc(-c3ccccc3)n[nH]2)c2cnn(C)c2n1 | 9 | 9
CCc1cc(=O)[nH]c(-n2nc(C)cc2NC(=O)c2cc(OC)c(OC)c(OC)c2)n1 | 10 | 3
Cc1cccc(C)c1Cn1c(C)c(C(=O)NC2CC2)sc1=O | 6 | 3
O=C(c1ccsc1)N1CCN(C(CO)c2cccc(Cl)c2)CC1 (centres undefined) | -10&-16 | -10&-18
COCCNC(=O)COc1c(Br)cccc1Br | 2 | -2
COc1ccccc1/C=C1\SC(=S)N(CCC(=O)N2CCN(C)CC2)C1=O | 11 | 10
CC1CC(=O)Nc2ccccc2N1C(=O)CN(C)C(=O)COc1ccc(-c2ccccc2)cc1 (centres undefined) | 10 | 11

An excerpt. The share of hits here may be higher or lower than overall.
